# Compound activity as filed in PubChem BioAssay.
# Sa growth inh: inhibitors of Staphylococcus aureus growth at 42 °C; AID 720641; relative growth, % (test concentration not listed); S. aureus RN4220 growth, OD600, 20 h; hits give low values; 170,000 tested, 0.53% active;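 active means growth at 42 °C up to 50% and 20 or more points under that at 30 °C, or under 10% at both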;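 further: 300 nL library stock went into each well; scaled to the means of positive and negative controls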
# GIV-Gai inh: GIV-Galpha-i interaction inhibition. 210,000 tested, 0.42% active. AID 1224905. P08753. Galpha-i3/FITC-GIV peptide fluorescence polarization, 90 min; hits give low values; scaled: aluminum fluoride 0%, vehicle 100%. percent of control (FP), % (test concentration not listed);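 active means replicate mean at 85% of control or lower, very high polarization wells dropped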;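 further: wells of about 15 µL received 100 nL stock; the first replicate is given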
# Target sequence (P08753 whole entry, looked up): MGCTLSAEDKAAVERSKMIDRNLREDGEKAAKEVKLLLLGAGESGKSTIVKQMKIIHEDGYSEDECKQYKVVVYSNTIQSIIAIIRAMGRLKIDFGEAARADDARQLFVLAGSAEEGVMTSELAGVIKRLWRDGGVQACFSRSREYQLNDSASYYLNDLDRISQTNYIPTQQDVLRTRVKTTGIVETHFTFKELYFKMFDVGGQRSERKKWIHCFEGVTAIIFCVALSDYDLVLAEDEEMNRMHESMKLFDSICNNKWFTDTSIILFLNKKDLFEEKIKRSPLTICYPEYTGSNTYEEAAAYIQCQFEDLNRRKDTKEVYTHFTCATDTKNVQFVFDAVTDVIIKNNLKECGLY
# HCMV UL50-53 inh: inhibitors of HCMV UL50-UL53 nuclear egress complex interaction; HTRF UL50-UL53 interaction, normalized percent inhibition; inhibition, % (test concentration not listed); 190,000 tested, 0.15% active;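 active means both replicates at 50% or more, plus weaker picks with an unusually low signal ratio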;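 further: stock transfer was 100 nL into about 20 µL; 0% = negative control wells and 100% = wells with untagged competitor protein; inactives centre near -12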
# Sa growth inh second temp: second read-out of Sa growth inh, no call of its own (marks repeat the call); relative growth, %; measured here: growth at 30 °C;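 optical density after 20 h as mean of two plates; 100% = untreated growth and lower means inhibition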
# An asterisk follows results filed as active; . = no result given; & = joins results of further samples.
1	CCOC(=O)CSc1nc2sc3c(c2c(=O)n1-c1ccc(OC)cc1)CC(C)(CC)OC3 (stereo unspecified)
2	O=C(NCc1ccccc1)c1ccc2c(=O)nc3c(-c4ccccc4)n[nH]n3c2c1
3	CC(C)=CC(=O)Nc1ccc(S(N)(=O)=O)cc1
4	O=C(Nc1ccc(Br)cc1)c1ccc(-n2cccn2)cc1
5	O=C(CCC(=O)N1CCc2cc(S(=O)(=O)N3CCCc4ccccc43)ccc21)N1CCOCC1
6	Cc1cc(OCC(=O)Nc2c(C)ccc3nsnc23)ccc1Cl
7	O=C(NC1CCCCC1)c1ccc(CSc2nc3cccnc3n2Cc2ccccc2)cc1
8	COc1ccc(C2=Nc3cc(C)c(C)cc3NC(=O)C2)cc1

assay / entry,1,2,3,4,5,6,7,8
Sa growth inh,.,.,108,100,.,81,112,.
Sa growth inh second temp,.,.,94,107,.,82,94,.
GIV-Gai inh,99,124,105,104,96,104,101,104
HCMV UL50-53 inh,13,-8,-8,-1,-32,.,.,-52

9	Cc1cc(C(=O)OCc2cc(=O)oc3c(C)c(C)ccc23)on1
10	O=C(c1cc(NS(=O)(=O)c2ccc(F)cc2)ccn1)N1CCc2ccccc21
11	CC(=O)Nc1ccc(/C=C2\N=C(C)OC2=O)cc1
12	Cc1ccc(S(=O)(=O)c2cn(Cc3ccccc3)c3cc(N4CCOCC4)c(F)cc3c2=O)cc1
13	COCCCNC(=O)CN1CCN(c2ccc(NC(=O)C3CCC3)c(C(=O)O)c2)CC1
14	O=C(CC1CCCC1)Nc1cc2c(cc1Br)OCCO2
15	C/C=N/N=C1/NC(=O)C(CC(=O)Nc2cccc(C)c2C)S1 (stereo unspecified)
16	CCn1c(-c2ccccc2)c(C(=O)COC(=O)/C=C/c2ccco2)c2ccccc21

assay / entry,9,10,11,12,13,14,15,16
Sa growth inh,80,108,90,116,.,102,127,100
Sa growth inh second temp,88,98,99,94,.,106,100,94
GIV-Gai inh,.,101,134,105,97,.,96,.
HCMV UL50-53 inh,3,-26,-7,.,-31,-7,-12,-28

17	CCCSCCCNC(=O)CN1C(=O)COc2ccc(S(=O)(=O)N3CCCCCC3)cc21
18	CCc1cccc(NC(=O)c2cccc3c2C(=O)N(CC2CCCO2)C3)c1 (stereo unspecified)
19	O=C1Nc2ccccc2/C1=C\c1cccc2ccccc12
20	O=C(O)C1(NS(=O)(=O)c2ccc(F)cc2)CCCCC1
21	C=CCSc1n[nH]c(-c2cccs2)n1
22	CC(C)c1ccccc1NC(=O)/C=C/c1ccco1
23	N#CC1(C#N)C(C(N)=O)C1c1ccccc1 (stereo unspecified)
24	N#Cc1c(-c2ccncc2)[nH]c(=S)[nH]c1=O

assay / entry,17,18,19,20,21,22,23,24
Sa growth inh,102,90,82,109,108,94,94,96
Sa growth inh second temp,90,86,76,96,96,97,119,91
GIV-Gai inh,106,104,105,.,102,109,136,102
HCMV UL50-53 inh,-33,.,-20,-20,3,-33,-41,-81

25	COc1ccccc1Nc1cc(C(=O)NC2CCC(C)CC2)c2ccccc2n1 (stereo unspecified)
26	COc1cn(CC(=O)Nc2ccc(F)cc2)c(CN2CCCCC2)cc1=O
27	CN(CP(=O)(O)CN1CCOCC1)S(C)(=O)=O
28	CCC(C)NC(=O)c1ccc(-n2ccc3ccccc32)s1 (stereo unspecified)
29	COC(=O)C1=C(N)OC2=C(C(=O)CC(c3ccccc3)C2)C1c1ccc(F)cc1 (stereo unspecified)
30	COCCCNC(=O)c1cc2c(-c3cccc(OC)c3)nn(C)c2s1
31	O=C(OCc1nnc(-c2ccccc2)o1)C1CCN(C(=O)c2ccc(Cl)cc2)CC1
32	Cc1ccc(C)c2[nH]c(=O)c(CCNC(=O)c3ccc(Br)o3)cc12

assay / entry,25,26,27,28,29,30,31,32
Sa growth inh,104,110,94,91,.,100,111,90
Sa growth inh second temp,91,85,91,93,.,75,85,80
GIV-Gai inh,106,101,.,97,110,111,.,104
HCMV UL50-53 inh,-8,.,-9,-4,-1,-7,-20,-28

33	CCc1ccc(C2c3c(oc4ccc(F)cc4c3=O)C(=O)N2c2nc(C)c(C(=O)OC)s2)cc1 (stereo unspecified)
34	CSc1ncccc1C(=O)OCc1cc(=O)n2cc(C)ccc2n1
35	Cc1nc2ncnn2c(C)c1CCC(=O)NCc1ccco1
36	O=C(Nc1ccc2c(c1)OCO2)N1CCCc2ccccc21
37	CC(OC(=O)c1cc2ccccc2[nH]1)C(=O)NC1CC1 (stereo unspecified)
38	Cc1cccc(-n2[nH]nnc2=S)c1C
39	CCOC(=O)c1ccc(Nc2nc(C)c3ncn(-c4ccc(C(=O)OCC)cc4)c3n2)cc1
40	O=C(Oc1ccc2c(c1)OCO2)c1cccc(Cl)c1

assay / entry,33,34,35,36,37,38,39,40
Sa growth inh,94,96,92,112,100,99,.,124
Sa growth inh second temp,96,94,89,91,91,96,.,90
GIV-Gai inh,108,.,100,104,.,.,109,.
HCMV UL50-53 inh,8,-23,-1,2,-12,-39,-42,-13

41	NC(=O)CC[C@H](N)C(=O)O
42	CSc1n[nH]c(NC(=O)c2cccs2)c1-c1ccccn1
43	CCOC(=O)NC(c1ccccc1)C1CCCCC1=O (stereo unspecified)
44	O=C(Nc1ccc(N2CCOCC2)cc1)c1ccc(-n2cccn2)cc1
45	CC1CCN(C(=O)CSc2ncnc3ccccc23)CC1
46	N#Cc1ccc(CC2=C(O)CC3(CCCCC3)CC2O)cc1 (stereo unspecified)
47	Cc1ccc2c(c1)-c1c(cnn1CC(=O)NC1CCCCC1C)CO2 (stereo unspecified)
48	Cc1ccc(-c2nc(CNC(=O)Nc3ccccc3)c(C)o2)cc1

assay / entry,41,42,43,44,45,46,47,48
Sa growth inh,.,85,97,84,104,92,109,82
Sa growth inh second temp,.,71,85,89,86,80,96,87
GIV-Gai inh,102,103,.,100,101,.,100,101
HCMV UL50-53 inh,-27&-8,-5,-38,-22,.,-11,.,.

# 4 of the compounds above, with each value named.
39: CCOC(=O)c1ccc(Nc2nc(C)c3ncn(-c4ccc(C(=O)OCC)cc4)c3n2)cc1
- Sa growth inh: .
- Sa growth inh second temp: .
- GIV-Gai inh: 109
- HCMV UL50-53 inh: -42
43: CCOC(=O)NC(c1ccccc1)C1CCCCC1=O (stereo unspecified)
- Sa growth inh: 97
- Sa growth inh second temp: 85
- GIV-Gai inh: .
- HCMV UL50-53 inh: -38
38: Cc1cccc(-n2[nH]nnc2=S)c1C
- Sa growth inh: 99
- Sa growth inh second temp: 96
- GIV-Gai inh: .
- HCMV UL50-53 inh: -39
47: Cc1ccc2c(c1)-c1c(cnn1CC(=O)NC1CCCCC1C)CO2 (stereo unspecified)
- Sa growth inh: 109
- Sa growth inh second temp: 96
- GIV-Gai inh: 100
- HCMV UL50-53 inh: .

# (listing goes on)
49	CCOc1ccc(CCNC(=O)C(CC(C)C)N2Cc3ccccc3C2=O)cc1OCC (stereo unspecified)
50	CCC(=O)Nc1ccc(CC)cc1-c1nc2ccccc2n(CC(=O)Nc2ccccc2C)c1=O
51	Cc1cc(C)c(C(=O)N2CCCC(C(=O)N3CCN(c4ccccc4)CC3)C2)[nH]1 (stereo unspecified)
52	Cn1c2ccccc2c2cn[nH]c(=O)c21
53	O=c1oc2ccccc2n1CN1CCCCC1
54	CC1(C)CC(=O)C2=C(C1)OC(N)=C(C#N)C2c1cn(-c2ccccc2)nc1-c1ccccc1 (stereo unspecified)
55	COc1c(C)cc(Br)cc1C(=O)Nc1ccc(-c2nc3ncccc3o2)cc1
56	CCN1C(C(=O)c2ccccc2)=C(OC(=O)c2ccco2)c2ccccc2S1(=O)=O

assay / entry,49,50,51,52,53,54,55,56
Sa growth inh,109,117,.,105,101,.,103,6.2*
Sa growth inh second temp,85,74,.,82,79,.,91,11*
GIV-Gai inh,108,103,101,105,141,99,105,103
HCMV UL50-53 inh,.,-20,-22,1,-48,-6,-51,1

57	CCC(=O)OCCCNc1nc(-c2ccc(Cl)cc2)nc2ccccc12
58	Cc1nn(C(=O)c2ccccc2)c(C)c1S(=O)(=O)N1CCOCC1
59	CC(C)N1CCC(=O)N(c2ccccc2Cl)C1=O
60	N#Cc1c(-c2ccco2)cc(-c2cccs2)[nH]c1=O
61	COc1cccc(C(=O)NC(=S)NCc2ccco2)c1
62	N=C(N)c1cccc(NC(=O)Nc2cccc(C(=N)N)c2)c1
63	CCc1ccccc1N(C)S(=O)(=O)c1cc(-c2cc(C)no2)ccc1OC
64	Cc1ccc(Cl)cc1NC(=O)Cn1cc2c(n1)CCCCC2

assay / entry,57,58,59,60,61,62,63,64
Sa growth inh,89,89,96,89,90,82,85,104
Sa growth inh second temp,36,93,94,68,50,78,92,88
GIV-Gai inh,99,101,101,103,102,.,104,97
HCMV UL50-53 inh,-4,.,-7,-112,-26,18,-14,-18

65	CC1CC(C)CN(C(=O)c2cn(-c3ccccc3)nc2-c2cccs2)C1 (stereo unspecified)
66	O=C1NCCN1CCNS(=O)(=O)c1ccc(S(=O)(=O)c2ccccc2)s1
67	O=C(O)C1C2CC3CC(C2)C(O)C1C3 (stereo unspecified)
68	CCCC1=Nc2cc(C(=O)N3CCC(C(=O)OCC)CC3)ccc2Sc2ccccc21
69	O=C(Nc1nc2ccccc2[nH]1)c1ccccc1F
70	CNC(=O)C1CCC(Cn2c(=O)c3sccc3n(CC(=O)Nc3cc(C)cc(C)c3)c2=O)CC1 (stereo unspecified)
71	CN1C(C(=O)c2ccccc2)=C(OC(=O)CN2C(=O)CCC2=O)c2ccccc2S1(=O)=O
72	CCNc1ncnc2c1oc1ccccc12

assay / entry,65,66,67,68,69,70,71,72
Sa growth inh,111,100,86,104,105,80,.,113
Sa growth inh second temp,88,92,87,80,85,88,.,89
GIV-Gai inh,.,107,98,104,101,94,103,109
HCMV UL50-53 inh,-12,-21,-3,-19,1,.,-20,10

# 5 entries from above, arranged by formula weight, high to low.
70	CNC(=O)C1CCC(Cn2c(=O)c3sccc3n(CC(=O)Nc3cc(C)cc(C)c3)c2=O)CC1 (stereo unspecified)
71	CN1C(C(=O)c2ccccc2)=C(OC(=O)CN2C(=O)CCC2=O)c2ccccc2S1(=O)=O
68	CCCC1=Nc2cc(C(=O)N3CCC(C(=O)OCC)CC3)ccc2Sc2ccccc21
66	O=C1NCCN1CCNS(=O)(=O)c1ccc(S(=O)(=O)c2ccccc2)s1
69	O=C(Nc1nc2ccccc2[nH]1)c1ccccc1F

assay / entry,70,71,68,66,69
Sa growth inh,80,.,104,100,105
Sa growth inh second temp,88,.,80,92,85
GIV-Gai inh,94,103,104,107,101
HCMV UL50-53 inh,.,-20,-19,-21,1

# Following part.
73	COCCCn1c(SCC(=O)Nc2ccccc2OC)nc2c(sc3ccccc32)c1=O
74	CC1(C(=O)NCc2ccc(F)cc2)Cn2c(cc3ccsc32)C(=O)N1C1CC1 (stereo unspecified)
75	CC(C)CNC(=O)C(=O)Nc1c2c(nn1-c1ccccc1)CS(=O)(=O)C2
76	Cc1nnc(N2CCN(C(=O)Nc3ccccc3F)CC2)c2nn(-c3ccc(Cl)cc3)c(C)c12
77	CCOC(=O)c1cc(C#N)c(Sc2nnc(SCC3CC3)s2)nc1C(F)(F)F
78	COc1ccc(Cn2c(=O)[nH]c3cc(C(=O)NC4CCN(Cc5ccccc5)CC4)ccc32)cc1
79	CCOc1ccc(C(=O)NCC(c2ccc3c(c2)OCO3)N2CCN(c3ccccc3F)CC2)cc1 (stereo unspecified)
80	CCn1c(SCC(=O)c2cccs2)nnc1-c1cccs1

assay / entry,73,74,75,76,77,78,79,80
Sa growth inh,109,.,126,.,78,77,111,83
Sa growth inh second temp,64,.,96,.,85,84,102,74
GIV-Gai inh,108,105,104,101,105,105,103,.
HCMV UL50-53 inh,.,-33,.,-2,-5,14,.,-27

81	Cc1c(Br)cc(C(=O)O)c(C)c1C
82	Cc1noc(C)c1S(=O)(=O)/N=C/N(C)C
83	COc1cc(NC(=O)c2ccc3oc(=O)c(S(=O)(=O)c4ccccc4)cc3c2)cc(OC)c1
84	Cc1ccc(C)c(OCCC(=O)O)c1
85	CCOC(=O)C1CCN(C(c2cccc(F)c2)c2c(O)cc(C)n(Cc3ccco3)c2=O)CC1 (stereo unspecified)
86	COc1ccccc1NC(=O)Cn1c(=O)n(Cc2ccccc2)c(=O)c2c3c(sc21)CN(C(C)=O)CC3
87	COc1ccc(/C=C2\SC(=S)N(CCCC(=O)NC34CC5CC(CC(C5)C3)C4)C2=O)cc1
88	O=C(CSc1nc2ccccc2o1)OCC(=O)c1ccc(F)cc1

assay / entry,81,82,83,84,85,86,87,88
Sa growth inh,135,88,112,106,122,90,.,99
Sa growth inh second temp,90,92,91,93,102,85,.,90
GIV-Gai inh,.,106,100,.,106,98,109,94
HCMV UL50-53 inh,-5,-10,-16,0,.,-7,-43,-13
